Choline anaer gr: blocks anaerobic gram-negative growth on choline. Gram-negative bacterium anaerobic choline minimal medium, absorbance growth; stronger effect = lower value; many inactives read as strong as hits in the columns shown. calls only. AID 1963822. 0.2% of 55,000 active;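 active = growth z-score on choline under -2 at 7 or 20 h with little or no fall on glycerol, limits in tiers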;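 also: stock transfer was 300 nL into about 50 µL; the organism is E. coli; final concentration not given here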
Choline anaer gr early: recorded beside Choline anaer gr, whose call it bears; z-score; measured here: choline growth z-score, timepoint 1;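 score of optical density at 7 h as mean of two plates; lower means less growth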
Starred values were filed as active, the others as inactive; i = inactive; & = joins results of further samples.

SMILES	Choline anaer gr	Choline anaer gr early
Fc1ccc(Nc2nc(N3CCOCC3)nc3c2cnn3-c2ccccc2)cc1	i	1.21
Cc1ccc(-c2cc3c(SCC(=O)NC4CCCCC4)nccn3n2)cc1	i	-0.79
Cc1c(C(=O)NCC(c2ccccc2)c2c[nH]c3ccccc23)oc2ccccc12 (stereo not given)	i	0.86
CCN(CC)c1ccc(NC(=O)C2C(C)C(=O)OC23CCC(C(C)C)CC3)c(C)c1 (stereo not given)	i	-0.28
CCCn1c(C)ccc(-c2noc(CCCC(=O)Nc3cc(C)cc(C)c3)n2)c1=O	i	0.08
COc1ccccc1NC(=O)Cn1cnc2c(sc3ncccc32)c1=O	i	0.07
COc1cccc(N2C(=O)CC(c3ccc(OC)c(OC)c3)CC2=O)c1	i	0.75
COc1ccc(-c2nc(NC(=O)COc3ccc(F)cc3)no2)cc1	i	-0.43
Cc1cccc2cc(-c3noc(-c4ccccc4)n3)c(N3CCOCC3)nc12	i	-1.43
c1ccc(CC2CCN(CCCNc3nn4nnnc4c4ccccc34)CC2)cc1	i	-0.95
O=C(Nc1ccc(C2(C(=O)NCCCc3ccccc3)CC2)cc1)c1ccc(Br)cc1	i	0.34
CCCS(=O)(=O)Nc1cccc(-c2ccc(S(=O)(=O)CC)nn2)c1	i	0.14
COc1ccc(S(=O)(=O)CCC(=O)N2CCCC2c2nc(-c3ccc(Cl)cc3)no2)cc1 (stereo not given)	i	-0.32
CCc1nnc(NC(=O)Nc2ccc(OC)cc2)s1	i	-0.15
Cc1ccc(-n2ncc(C(=O)NCCN3CCc4ccccc4C3)c2C2CCNCC2)c(C)c1	i	-0.89
O=S1(=O)C[C@H](N2CCN(c3ccc(F)cc3)CC2)[C@@H](S(=O)(=O)c2ccc(F)cc2)C1	i	0.6
O=C1C(O)=C(c2ccc(Cl)cc2)C(c2ccc(Cl)cc2)N1Cc1ccc(F)cc1 (stereo not given)	i	-1.16
Cc1cccc(N2CCN(C(=O)Cn3ncc4ccccc43)CC2)c1C	i	0.72
COc1ccc(OC)c(NC(=O)c2cc3c([nH]c2=O)CC(C)(C)CC3=O)c1	i	-0.76
COc1ccc(Cl)cc1NC(=O)CN1C(=O)C(C)(C)c2cc(S(=O)(=O)N3CCCC3)ccc21	i	1.33
O=C(c1c(F)cccc1F)N1CC(OCc2ccccc2F)C1	i	0.65
CCCCC(=O)NCc1nc2cccnc2n1CCOC	i	-1.53
O=C(O)c1cc(N2CCN(c3ccccc3)CC2)nc2ccc(NS(=O)(=O)c3ccc(F)cc3)cc12	i	-1.14
CCn1c2c(c3cc(C)ccc31)CCCC2=O	i	0.15
O=S(=O)(c1cccn2c(SCc3ccccc3)nnc12)N1CCN(c2ccc(F)cc2)CC1	i	0.17
Cc1ccc(Nc2cc(C)nc(N3CCN(C(=O)Nc4cccc(Cl)c4)CC3)n2)cc1	i	1.08
CC(C)(C)c1ccc2c(c1)N(CC(=O)Nc1ccc(CCc3nc4ccccc4[nH]3)cc1)C(=O)CO2	i	1.28
Cc1cc(-c2cc(S(=O)(=O)NCCc3ccc(Cl)cc3)c(C)s2)n[nH]1	i	1.31
CCc1nc2ccccc2n1C(C)C(=O)O (stereo not given)	i	0.15
Cc1cccc2c1-c1sc(C(=O)N3CC=C(c4ccccc4)CC3)cc1CO2	i	1.02

Quoted at random: five compounds from above.
SMILES	Choline anaer gr	Choline anaer gr early
CC(C)(C)c1ccc2c(c1)N(CC(=O)Nc1ccc(CCc3nc4ccccc4[nH]3)cc1)C(=O)CO2	i	1.28
Cc1cc(-c2cc(S(=O)(=O)NCCc3ccc(Cl)cc3)c(C)s2)n[nH]1	i	1.31
O=C(c1c(F)cccc1F)N1CC(OCc2ccccc2F)C1	i	0.65
CCn1c2c(c3cc(C)ccc31)CCCC2=O	i	0.15
CCc1nc2ccccc2n1C(C)C(=O)O (stereo not given)	i	0.15

(further entries)
SMILES	Choline anaer gr	Choline anaer gr early
CC(C)NC(=O)CCn1c(=O)c2ccccc2n2c(=O)n(Cc3ccc(F)cc3)nc12	i	-0.54
CC(C)CCn1c(=O)c2sccc2n2c(SCC(=O)N3CCCCC3C)nnc12 (stereo not given)	i	-0.03
Cc1nc(-n2nc(C)c(Cl)c2C)sc1C(=O)N1CCCC1	i	-1.56
O=C(CSc1nnc(NC(=O)NC2CCCCC2)s1)NC1CCCC1	i	0.23
CC(=O)Nc1ccc(-c2noc(C3CCCN(C(=O)CCC4CCCC4)C3)n2)cc1 (stereo not given)	i	-1.2
CC1(C(=O)NCc2ccc3c(c2)OCO3)CCN(C(=O)c2ccc(Cl)cc2)CC1	i	0.61
CCOc1cc(C2Nc3ccc(CC)cc3[C@H]3OCC[C@@H]23)cc(Br)c1OC (stereo not given in full)	i	0.05
Cc1ccccc1C(=O)Nc1cccc(OCc2cc(=O)n3ccccc3n2)c1	i	-0.07
CC(=O)Nc1ccccc1-c1nnc(SC(C)C(=O)Nc2c(C)cc(C)cc2C)[nH]c1=O (stereo not given)	i	0.17
NS(=O)(=O)c1ccc(CCNC(=O)c2noc3c2CSc2ccccc2-3)cc1	i	-0.53
COc1ccc(OC)c(Nc2c(C#N)cnc3cc(OC)ccc23)c1	i	0.97
CC1CCN(Cc2cn3c(-c4ccc(Br)cc4)nnc3s2)CC1	i	0.25
CCOc1c(C(=O)OC)sc2ccc(NC(=O)Nc3cccc(OC)c3)cc12	i	0.9
CC(C)NC(=O)c1cc2c(n(-c3ccc(F)cc3)c1=O)CCCC2=O	i	-0.68
CCCc1nc(-c2cc3cccc(C)c3nc2N2CCCCC2)no1	i	-0.21

Quoted from the listing.
CC(C)CCn1c(=O)c2sccc2n2c(SCC(=O)N3CCCCC3C)nnc12 (stereo not given) @ Choline anaer gr early = -0.03
CCCc1nc(-c2cc3cccc(C)c3nc2N2CCCCC2)no1 @ Choline anaer gr early = -0.21
COc1ccc(OC)c(Nc2c(C#N)cnc3cc(OC)ccc23)c1 @ Choline anaer gr early = 0.97

Next structures
SMILES	Choline anaer gr	Choline anaer gr early
Cc1ccccc1C(=O)N(CCCN1CCCC1=O)CCS(=O)(=O)N1CCNCC1	i	0.25
Cn1nc(-c2ccccc2)c(-c2ccccc2)c(C(=O)NCC2CCCO2)c1=O (stereo not given)	i	0.81
O=S(=O)(NCCc1cccs1)c1ccc(-c2cnc(C3CCCC3)o2)s1	i	0.07
COc1cc2c(cc1OC)CN(S(=O)(=O)c1cccc(S(=O)(=O)N3CCOCC3)c1)CC2	i	0.05
Cn1c(=O)n(C)c2cc(CNc3ccc4c(c3)OCO4)ccc21	i	1.23
CC(C)Cn1c(=O)c2sccc2n2c(CCCC(=O)NCc3ccccn3)nnc12	i	0.97
O=S(=O)(Nc1nc2n(n1)C(c1ccc(F)cc1)C=C(c1ccccc1)N2)c1ccccc1 (stereo not given)	i	0.12
Cc1ccc(C(=O)Nc2cc(-c3noc(C4CCC4)n3)sc2C)s1	i	0.42
CCOC(=O)N1CCC2(CC1)N=C(c1ccc3c(c1)OCO3)CC(c1ccccc1O)N2 (stereo not given)	i	-0.87
O=C(c1ccc2c(c1)CCCN2S(=O)(=O)c1ccccc1)N1CCN(c2cccc(Cl)c2)CC1	i	1.01
CC(=O)NCCc1nc2cc(NC(=O)c3ccc(C)cc3)ccc2n1C	i	-0.15
CN1CCN(c2ncncc2N2CCC(C(=O)N3CCCC3)CC2)CC1	i	-2.06
COc1ccc(OCC(=O)N2CCC3(CC2)Nc2ccccc2-n2cccc23)cc1	i	-0.87
CCc1ccc(-n2c(=O)c3cccnc3n2CC(=O)NC2CCCCC2)cc1	i	-0.73
COc1ccc(-c2ncc3c(=O)n(CC(=O)Nc4ccccc4OC)c(=O)n(C)c3n2)cc1	i	1.19
Cn1c(N2CCCC(C(=O)NC3CCCC3)C2)cc(=O)n(C)c1=O (stereo not given)	i	-0.63
Cc1cccc(Cn2cccc2CNS(=O)(=O)c2c(C)noc2C)c1	i	0.49
CC1CCN(C(=O)c2csc(S(=O)(=O)NC3CC3)c2)CC1	i	-0.7
CCN(CC)c1ccc(C2=C(Cl)C(=O)c3ncccc3C2=O)cc1	i	0.77
CCc1nn(-c2ccccc2)c2nc(-c3ccccc3)nc(SCC(=O)Nc3ccc4c(c3)OCO4)c12	i	0.07
Cc1ccc(-c2nnc(-c3ccccc3)o2)cc1S(=O)(=O)N1CCOCC1	i	0.92
Cc1ccc(NC(=O)N2CCCn3nc(C)cc32)c(Cl)c1	i	-0.35
CCOc1cccc(C2Nc3ccc(Br)cc3[C@H]3OCCC[C@@H]23)c1OC (stereo not given in full)	i	1.49
CCC(C(=O)N1CCN(c2cc(C)ccc2C)CC1)N1CCN(Cc2ccc(F)cc2)C(=O)C1=O (stereo not given)	i	0
CCOc1ccc(-c2noc(-c3scc(-c4cccc(C)c4)c3-n3cccc3)n2)cc1	i	-0.47
O=C(c1csc(S(=O)(=O)NC2CC2)c1)N1CCOCC1	i	-0.52
CC1(C)S[C@H]2C(NC(=O)C(N)c3ccc(O)cc3)C(=O)N2C1C(=O)O (stereo not given in full)	i	0.58
CC(C)n1cnc2nc(COc3ccccc3NC(=O)Nc3cccc(F)c3)cc(=O)n21	i	0.25
COc1ccc(Cn2c(C)c(C3=CCN(S(=O)(=O)c4cccc5nsnc45)CC3)c3ccccc32)cc1	i	-0.06
Cc1cc(C)n2nc(CN(C(=O)C(C)C)c3ccccc3)nc2n1	i	-0.39

Two entries from above in a different format:
Every second line gives: Choline anaer gr | Choline anaer gr early
- Cc1cccc(Cn2cccc2CNS(=O)(=O)c2c(C)noc2C)c1
 : i | 0.49
- CC1CCN(C(=O)c2csc(S(=O)(=O)NC3CC3)c2)CC1
 : i | -0.7

Back to the main list, starting 2 compounds before the break.
SMILES	Choline anaer gr	Choline anaer gr early
COc1ccc(Cn2c(C)c(C3=CCN(S(=O)(=O)c4cccc5nsnc45)CC3)c3ccccc32)cc1	i	-0.06
Cc1cc(C)n2nc(CN(C(=O)C(C)C)c3ccccc3)nc2n1	i	-0.39
Cc1ccc2sc(N(CCN(C)C)C(=O)c3ccccc3Cl)nc2c1C	i	-1.35
Cc1ccc(Cc2nc3nc4c(c(NCc5ccc6c(c5)OCO6)n3n2)CCCC4)cc1	i	0.35
CCN(CC)CCNc1cc(C)nc2c(-c3ccc(Cl)cc3)c(C(F)(F)F)nn12	i	0.34
Cc1nn(Cc2ccccc2)c(=O)c2noc(C)c12	i	-1.29
CCOc1ccc(CN2CCCC2c2c(C)noc2C)cc1OC (stereo not given)	i	1.24
Cc1cc(C)c2c(n1)SCCN2C(=O)Nc1ccc(Br)cc1F	i	0.08
Cc1ccc(-c2c(Nc3cc(C)[nH]n3)c(=O)c2=O)cc1	i	-0.49
CCCn1c(Cn2ccnc2C)nc2cc(NC(=O)CC(C)C)ccc21	i	-1.44
O=C(Nc1ccc2c(c1)OCO2)N1CCN(C(=O)c2nsc3ccccc23)CC1	i	-0.57
Cc1csc(-c2cc(S(=O)(=O)NC(C)(C)C)c(C)n2C)n1	i	0.81
Cn1c(SCC(=O)NCc2ccc(F)cc2)nc2cc(-c3ccccc3)sc2c1=O	i	-0.05
CCCn1cnc2cc(NCc3ccc(OC)cc3OC)ccc21	i	0.8
O=C(Nc1ccc(F)c(Cl)c1)c1cccc(Nc2ncc(-c3ccc(F)cc3)cn2)c1	i	-1.13
S=C(S)N1CCCC1	i	0.67&0.22
COC(=O)C[C@H](NC(=O)[C@H](C)NC(=O)[C@@H](NC(=O)OCc1ccccc1)C(C)C)C(=O)CF	i	0.21
CCOc1ccc(NC(=O)N2CCC(n3cnc4ccccc4c3=O)CC2)cc1	i	-0.03
N=c1c[n+](N2CCOCC2)[n-]o1	i	-0.57&0.35
CCc1ccc2occ(CC(=O)Nc3c(C(=O)c4ccc(C)cc4)oc4ccccc34)c2c1	i	0.13
COc1ccc(-c2cc(C(=O)Nc3cc(C)ccc3C)nn2C2CCS(=O)(=O)C2)cc1 (stereo not given)	i	0.09
CCOC(=O)c1[nH]c(C)c(CCC(=O)NCc2cn[nH]c2C)c1C	i	1.44
CC1CCCN(S(=O)(=O)c2ccc(-c3nnc(C4CCCC4)o3)o2)C1 (stereo not given)	i	0.34
O=C(Nc1ccc(SCc2nnc(-c3ccccc3)o2)cc1)Nc1ccc(Br)cc1F	i	1.05
O=C(NCCN1CCOCC1)c1cnc2sccn2c1=O	i	-0.54
Cc1sc(-c2cc(C(F)(F)F)on2)cc1S(=O)(=O)N1CCN(c2cccc(Cl)c2)CC1	i	0.58
Cc1ccc2c(C)c(C(=O)Nc3onc4c3CC(C)CC4)oc2c1C (stereo not given)	i	-0.05
O=S(=O)(c1ccc(F)cc1)N1CCCC1c1ccc(F)cc1 (stereo not given)	i	-0.95
O=C1c2ccncc2C(=O)N1c1ccc(F)cc1F	i	-2.27
Cc1cc(C)cc(NC(=O)N2CCN(c3ccc(-c4noc(C)n4)cc3)CC2)c1	i	0.53
Cc1c(C)n(-c2ccccc2)c2ncn(CCC(=O)NC3CC3)c(=O)c12	i	-1.27
Cc1ccc(-c2nc(CS(=O)CC(=O)N3CCN(c4ccc(Cl)cc4)CC3)c(C)o2)cc1 (stereo not given)	i	-0.45
CCn1cc(C(CNC(=O)NCc2ccccc2)c2cccnc2)c2ccccc21 (stereo not given)	i	1.38
CCOC(=O)C1CCN(C(=O)c2snc3c(=O)n(CC(C)C)c(=O)[nH]c23)CC1	i	0.33
CCOCCCNC(=O)c1ccc(Cn2c(SCc3cccc(OC)c3)nc3ccncc32)cc1	i	0.28
CC(=O)Nc1ccc(-c2noc(C3CCCN(C(=O)Cc4c[nH]c5ccccc45)C3)n2)cc1 (stereo not given)	i	-2.15
Cc1cccc(NC(=O)NCc2nnc(C(=O)Nc3ccccc3)s2)c1	i	-0.71
O=C(CC1CCCC1)N1CC(OCc2ccc(Cl)cc2)C1	i	-1.81

Some of the compounds tested; count on the stated rates, not on these rows.
